# From PubChem
# KCNQ2 enhance – enhances the rat KCNQ2 potassium channel | actives 0.54% (n = 310,000) | B-score at 10 µM | O88943 | CHO-K1 KCNQ2, FluxOR thallium flux fluorescence; active compounds read high;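 active = fluorescence ratio B-score at least 3 SD of library B-scores, with initial fluorescence B-score within 3 SD, cut at about 5.3 in these data; same plate scores as AID 2156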;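 note: B-score of peak minus minimum over baseline fluorescence ratio after K+ and Tl+ stimulus; positive B-score means potentiation of KCNQ2 with more thallium influx and brighter signal; only the inactives scoring about 0 or higher are listed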
# Target sequence (O88943 whole entry, looked up): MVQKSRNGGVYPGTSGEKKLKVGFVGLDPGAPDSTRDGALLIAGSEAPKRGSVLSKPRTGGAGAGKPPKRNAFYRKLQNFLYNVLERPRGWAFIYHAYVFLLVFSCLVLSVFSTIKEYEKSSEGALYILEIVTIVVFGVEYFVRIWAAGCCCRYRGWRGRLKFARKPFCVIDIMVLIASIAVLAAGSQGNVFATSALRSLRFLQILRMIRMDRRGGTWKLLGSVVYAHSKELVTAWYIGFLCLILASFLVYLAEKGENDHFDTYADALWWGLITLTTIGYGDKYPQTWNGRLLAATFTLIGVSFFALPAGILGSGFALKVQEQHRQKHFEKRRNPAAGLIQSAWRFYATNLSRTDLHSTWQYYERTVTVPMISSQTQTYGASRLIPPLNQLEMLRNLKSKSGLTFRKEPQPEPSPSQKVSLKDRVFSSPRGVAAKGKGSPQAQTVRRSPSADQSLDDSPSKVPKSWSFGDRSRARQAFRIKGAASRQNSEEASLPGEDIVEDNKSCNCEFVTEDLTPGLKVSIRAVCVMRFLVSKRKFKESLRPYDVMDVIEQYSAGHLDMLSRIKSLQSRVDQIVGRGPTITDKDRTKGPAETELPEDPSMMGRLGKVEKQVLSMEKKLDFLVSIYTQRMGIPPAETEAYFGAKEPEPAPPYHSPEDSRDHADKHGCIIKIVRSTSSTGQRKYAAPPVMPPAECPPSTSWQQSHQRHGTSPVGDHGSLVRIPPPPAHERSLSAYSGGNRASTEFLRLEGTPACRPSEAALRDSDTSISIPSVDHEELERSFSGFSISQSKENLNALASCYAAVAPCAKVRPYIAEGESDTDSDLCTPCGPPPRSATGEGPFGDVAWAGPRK
# KCNQ2 enhance baseline – recorded beside KCNQ2 enhance, whose call it bears; B-score; compound at 10 µM; measured here: initial fluorescence intensity artifact check;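 brightness before thallium and not channel activity; 0 = typical well and far values either way flag optical interference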
# The depositor's hits bear a star; & = joins results of further samples. Only part of the results is shown; rates above refer to the full screens.
SMILES,KCNQ2 enhance,KCNQ2 enhance baseline
C=CCN1C(=O)/C(=C2\SC(N3CCOCC3)=NC2=O)c2cc(Br)ccc21,1.49,-1.09
N#C/C(=C\c1cn[nH]c1-c1ccccc1Br)C(=O)O,1.21,1.07
COC(=O)NNC(=O)CCCOc1ccc(Cl)cc1Cl,1.16,-1.16
Cn1nc(-c2ccc(C(=O)NCC3CCCO3)cc2)c2ccccc2c1=O (stereo not given),0.53,0.48
O=C(CCc1nc2sc3c(c2c(=O)[nH]1)CCCC3)NCCOc1ccccc1,0.07,0.98
CCNC(=S)N1CCN(S(=O)(=O)c2cccc(C(F)(F)F)c2)CC1,0.02,0.47
CC(C)(C)Cc1nnc(NS(=O)(=O)c2ccc(F)cc2)s1,2.13,-1.16
Cc1cc(C)n2nc(-c3cccnc3)nc2n1,0.46,0.02
COc1cccc(N/C=C/c2onc(C)c2[N+](=O)[O-])c1,0.61,0.07
CC(NC(=O)NC1CCCCC1)C(c1cccs1)N1CCN(c2ccccc2)CC1 (stereo not given),1.21,0.97
CC(C)(C)c1cc(NCc2ccccn2)n2ncc(-c3ccc(Cl)cc3)c2n1,0.94,-0.6
COc1cccc(NC(=S)N(CCN(C)C)C(C)c2ccncc2)c1 (stereo not given),0.29,-0.65
CN(c1ccccc1)c1ncccn1,1.51,-0.51
COc1ccc(Nc2nc(CC(C)=O)ns2)cc1,0.53,-0.67
CCS(=O)(=O)N1Cc2ccccc2CC1C(=O)NCCc1ccccc1 (stereo not given),1.29,-0.94
Cc1sc(NC(=O)CN(Cc2ccccc2)C(=O)C2CC2)c(C(N)=O)c1C,0.9,-0.45
COc1cc(CC(=O)N/N=C/c2ccccc2)c([N+](=O)[O-])cc1OC,0.25,-0.97
COC(=O)c1ccc2c(=O)n(CCN3CCOCC3)c(SCC(=O)Nc3cccc(OC)c3)nc2c1,0.11,0.15
CCC(c1nnc(SCCNCCO)n1CCN1CCOCC1)N(C)C (stereo not given),0.59,2.6
O=S(=O)(c1ccc2c(c1)OCCO2)N1CCC(O)(c2ccc(Cl)cc2)CC1,0.34,-1.3
O=C(N/N=C/c1cccc([N+](=O)[O-])c1)c1cc(-c2ccc3c(c2)OCO3)n[nH]1,0.74,1.89
CC(=O)c1ccc(-n2c(-c3cc(-c4ccsc4)n[nH]3)n[nH]c2=S)cc1,0.42,0.13
Cc1cccc(N2CCN(C(=O)C3CCN(S(=O)(=O)c4c(C)noc4C)CC3)CC2)c1C,0.06,3.04
O=C(COC(=O)CCc1nc2ccccc2c(=O)[nH]1)NC(c1ccccc1)c1ccccc1,0.31,-1.56
CC(=O)Nc1cccc(-c2csc(Nc3ccccn3)n2)c1,1.95,-0.36
CCOC(=O)C1CCN(CCC(=O)Nc2ccc(Br)c(C)c2)CC1,1.72,0.54
Nc1nc(SCC(=O)NCc2ccc3c(c2)OCO3)n[nH]1,0.06,0.45
CCOC(=O)c1ccc(S(=O)(=O)NNC(=O)COc2ccc(C)cc2)cc1,1.15,-0.53
COc1ccc(OC)c2nc(-c3ccc4c(c3)OCO4)ccc12,0.01,0.45
COc1ccc2c(c1)CCc1sc(NC(=O)c3ccc(C)cc3)nc1-2,0.16,0.62
CCCC(=O)N1CCN(c2nc3ccc(CC)cc3s2)CC1,0.2,-0.9
CCN1C(=NCc2ccccc2)N[C@@H](c2ccccc2)[C@H](C(=O)OC)[C@H]1C,1.47,-1.32
COC1=C(OC)c2ccccc2C(C(=O)O)N/C1=C(/C)Nc1ccncc1 (stereo not given),0.36,1.92
O=C(NCc1ccccn1)C1CC(c2ccc(Cl)c(Cl)c2)=NO1 (stereo not given),0.04,3.57
Cn1c(N)c(C(=O)COC(=O)/C=C/c2ccc(OC(F)F)cc2)c(=O)n(C)c1=O,0.98,0.41
O=C1NC(=Nc2ccc3ccccc3c2)S/C1=C/c1ccco1,0.93,0.2
O=[N+]([O-])c1cc(C(F)(F)F)cc([N+](=O)[O-])c1N1CCN(S(=O)(=O)c2ccccc2)CC1,1.31,0.42
Cc1occc1C(=O)N/N=C/c1c(O)ccc2ccccc12,1.24,-0.05
O=C(NS(=O)(=O)c1ccc(NC(=O)C2CCCO2)cc1)c1ccccc1 (stereo not given),0.51,-0.46
CCOc1ccc(C(C)=O)cc1N1C(=O)C2C3C=CC(O3)C2C1=O (stereo not given),0.93,-1.31
Cc1sc2nc(CSC(C)C(=O)N3CCOCC3)[nH]c(=O)c2c1C (stereo not given),0.24,0.48
CCOc1ccc(CC(=O)OCc2cc(=O)n3cc(Br)ccc3n2)cc1,0.04,1.91
N#C/C(=C\c1ccc(N2CCOCC2)c([N+](=O)[O-])c1)c1nc2ccccc2[nH]1,0.27,0.06
Cc1ccc(S(=O)(=O)n2c(C)nc3cc(C)ccc32)cc1,0.6,-1.03
COCCNC(=O)Cn1cc(C(=S)N2CCCCC2)c2ccccc21,0.85,0
O=C(O)c1ccc(NC(=O)C2CC=CCC2C(=O)O)cc1 (stereo not given),1.13,-0.94
COC(=O)c1scc(C)c1NS(=O)(=O)c1ccc(NC(C)=O)cc1,1.6,-0.23
CCC(C)NC(=O)CCSc1ccc(C)cc1 (stereo not given),0.64,0.14
COc1ccc(CCN2C(=O)NC(NS(=O)(=O)c3ccc(Cl)cc3)(C(F)(F)F)C2=O)cc1OC (stereo not given),1.33,-0.12
CCOC(=O)C1CCCN(Cc2ccc(OCc3ccccc3)c(OC)c2)C1 (stereo not given),0.66,0.38
C=C(C)Cn1c(N2CCCC2)nc2c1c(=O)[nH]c(=O)n2C,0.01,-0.12
O=C(Nc1cccc(-c2ccc(N3CCCCC3)nn2)c1)c1ccco1,1.44,-0.89
CC(=O)Nc1ccc(C(=O)NCC(c2ccco2)N(C)C)cc1 (stereo not given),1.56,-0.24
CC(=O)Nc1cc(C(=O)N2CCCC2)ccc1S(=O)(=O)c1ccc(C)cc1,0.92,-0.97
CC1CCCCC1NC(=O)c1ccc(S(=O)(=O)NCc2ccco2)cc1 (stereo not given),1.09,-0.89
Cc1c(Cl)cccc1NC(=O)c1cc(S(=O)(=O)N2CCOCC2)cn1C,0.31,-1.23
C=CCn1c(P(C)(=O)O)nc2ccccc21,2.41&2.13,1.09&-1.53
O=C(CSc1n[nH]c(-c2cccnc2)n1)Nc1ccccc1[N+](=O)[O-],0.54,1.13
O=C(NCCN1CCN(C(=O)c2ccccc2Cl)CC1)C(=O)NCc1ccccc1,0.93,-0.11
Cc1ccc2c(Cl)c(C(=O)NC3CC3)sc2c1,0.57,-1.11
# The listing continues.
SMILES,KCNQ2 enhance,KCNQ2 enhance baseline
Cc1c(NC(=O)CCC2CCCCC2)cc(C(=O)N2CCOCC2)cc1[N+](=O)[O-],0.14,-0.05
COc1ccccc1NC(=O)CSc1ccc(-c2ccc(-n3cccn3)cc2)nn1,0.1,-0.49
Cc1ccc2nc(NCCO)nc(-c3ccccc3)c2c1,0.26,0.78
COc1ccc(C(=O)CSc2nnc(-c3ccoc3C)n2CC2CCCO2)cc1 (stereo not given),0.1,-1.46
[N-]=[N+]=NC[C@H](Cc1ccccc1)N1CC[C@@H](O)CCC1=O,0.41,-0.47
Cc1c(/C=N\NC(=O)c2ccc(F)cc2)cnn1C,0.03,0.22
COc1ccc(C/C(N)=N/OC(=O)Cc2ccccc2)cc1,1.19,1.44
Cc1ccc(N2C(=O)C3N=NN(CC(=O)N4N=C(c5ccccc5)CC4c4ccccc4)C3C2=O)cc1 (stereo not given),0.85,-0.34
CCCCCN(C(=O)CCC(=O)OCC(=O)N(CC)C1CCCCC1)c1c(N)n(CCCC)c(=O)[nH]c1=O,1.4,-1.94
COC(=O)/C=C1/SC(=NC(=O)c2ccccc2)NC1=O,0.62,-2
CCOC(=O)Cc1ccc(NC(=O)c2ccc(C(C)(C)C)cc2)cc1,1.32,-0.31
CCc1nn(CC(=O)NCCCN2CCCC2=O)c(=O)c2cc3sccc3n12,0.14,1.65
O=S(Cc1ccc(Br)cc1)Cc1nnc(SCc2ccc(Br)cc2)n1-c1ccccc1 (stereo not given),0.04,-0.28
CCn1cc(CNC(=O)c2cccc([N+](=O)[O-])c2)c(C)n1,0.45,-0.63
COCCCN1C(=O)C(O)=C(C(=O)c2ccco2)C1c1cccc(Br)c1 (stereo not given),0.09,-1.59

# Gathered by group, the entries above containing a furan ring, fused or not (7)
SMILES,KCNQ2 enhance,KCNQ2 enhance baseline
O=C1NC(=Nc2ccc3ccccc3c2)S/C1=C/c1ccco1,0.93,0.2
Cc1occc1C(=O)N/N=C/c1c(O)ccc2ccccc12,1.24,-0.05
O=C(Nc1cccc(-c2ccc(N3CCCCC3)nn2)c1)c1ccco1,1.44,-0.89
CC(=O)Nc1ccc(C(=O)NCC(c2ccco2)N(C)C)cc1 (stereo not given),1.56,-0.24
CC1CCCCC1NC(=O)c1ccc(S(=O)(=O)NCc2ccco2)cc1 (stereo not given),1.09,-0.89
COc1ccc(C(=O)CSc2nnc(-c3ccoc3C)n2CC2CCCO2)cc1 (stereo not given),0.1,-1.46
COCCCN1C(=O)C(O)=C(C(=O)c2ccco2)C1c1cccc(Br)c1 (stereo not given),0.09,-1.59

# Laid out differently: results already given.
KCNQ2 enhance	KCNQ2 enhance baseline	SMILES
0.1	-1.46	COc1ccc(C(=O)CSc2nnc(-c3ccoc3C)n2CC2CCCO2)cc1 (stereo not given)
0.41	-0.47	[N-]=[N+]=NC[C@H](Cc1ccccc1)N1CC[C@@H](O)CCC1=O
0.03	0.22	Cc1c(/C=N\NC(=O)c2ccc(F)cc2)cnn1C
1.19	1.44	COc1ccc(C/C(N)=N/OC(=O)Cc2ccccc2)cc1
0.85	-0.34	Cc1ccc(N2C(=O)C3N=NN(CC(=O)N4N=C(c5ccccc5)CC4c4ccccc4)C3C2=O)cc1 (stereo not given)
1.4	-1.94	CCCCCN(C(=O)CCC(=O)OCC(=O)N(CC)C1CCCCC1)c1c(N)n(CCCC)c(=O)[nH]c1=O
0.62	-2	COC(=O)/C=C1/SC(=NC(=O)c2ccccc2)NC1=O

# The list goes on.
SMILES,KCNQ2 enhance,KCNQ2 enhance baseline
COc1ccc(/C=C/C2=Nc3ccccc3NC(C)(C)C2)cc1OC,0.01,-2.77
COc1ccc(NC(=O)c2cc(C)nc3ccccc23)cc1S(=O)(=O)Nc1ccccc1Cl,0.08,-0.2
CCCC(=O)Nc1ccc(S(=O)(=O)N2CCOCC2)cc1,0.99,-2.37
O=C(O)c1cc(NS(=O)(=O)c2cccc3ccccc23)ccc1O,1.65,-0.07
NS(=O)(=O)c1ccc(N2C(=O)C(=O)/C(=C(/O)c3ccccc3)C2c2ccc(Cl)cc2)cc1 (stereo not given),0.3,0
CCc1nnc(NC(=O)CCS(=O)(=O)c2ccccc2)s1,0.04,0.64
COc1ccccc1NC(=O)NCCN1CCCCC1,0.18,-1.05
Cc1ccc(NC(=O)CSc2n[nH]c(-c3cccnc3)n2)c(Br)c1,0.13,1.05
CC(C)(C)C1COc2ccccc2N1C(=O)c1cccc(Cl)c1 (stereo not given),0.65,-1.58
CC(C)S(=O)(=O)c1csc(NC(=O)Nc2cccc([N+](=O)[O-])c2)c1Cl,0.67,-0.09
Cn1nc(C(F)(F)F)c2cc(C(=O)Nc3ccc(F)cc3)sc21,1.45,-0.87
CCOC(=O)Cc1cc(=O)[nH]c(/N=C(\N)Nc2ccc(C)cc2C)n1,0.76,-1.66
Cc1cc2c(c(=O)o1)C(C13C=CC(CC1)C3)C(C#N)=C(N)O2 (stereo not given),0.28,-1.26
O=C(Nc1ccccc1)NC1CCS(=O)(=O)C1 (stereo not given),0.28,-1.86
CNC(=O)c1nc(C)n(-c2ccc(Cl)cc2Cl)n1,0.01,-0.98
CCCCN(C)/C=N/c1c(C#N)cnn1-c1ccc(C)cc1,0.07,-1.67
CC(=O)Nc1ccc(NCN2C(=O)[C@@H]3[C@H]4CC[C@H](C4)[C@@H]3C2=O)cc1,0.06,1
Cc1ccc(C)c(OCCC(=O)OCC(=O)N2CCN(S(=O)(=O)c3ccc(Cl)cc3)CC2)c1,2.28,-0.21
CN(C)CCCNC(=S)N(CCCN(C)C)Cc1cc2cc3c(cc2[nH]c1=O)OCO3,0.1,-1.02
O=C(Nc1cc2c(oc1=O)CCCC2=O)c1ccccc1,0.42,-1.58
Cc1ccc(NC(=O)Cc2ccc3c(c2)OCCO3)cc1S(=O)(=O)N1CCCCC1,0.62,-0.47
COc1ccc(C(C(=O)NCC2CCCO2)N(C(=O)Cn2nnc3ccccc32)c2ccc(NC(C)=O)cc2)cc1OC (stereo not given),0.05,0.74
O=C(O)CCNS(=O)(=O)c1ccc2c(c1)CCCC2,0.01,0.19
COc1ccc(-c2nnn(CC(=O)NCc3ccccc3)n2)cc1OC,0.86,-0.24
CSc1sc(C(=O)OC(C)C)c2c1C(=O)CC(C)(C)C2,0.05,1.75
COc1ccc(CNC(=O)CN2C(=O)NC(C)(c3ccc(Cl)cc3)C2=O)cc1 (stereo not given),0.44,-0.17
Cn1cnnc1SCC(=O)Nc1ccc(OC(F)F)cc1,0.69,0.6
CCCn1c(NC(=O)c2ccc(Br)cc2)nc2ccccc21,0.94,0.4
CCOC(=O)c1c(NC(=O)CN2C(=O)NC3(CCCC3)C2=O)sc(C)c1CC,3.61,-0.31
COC(=O)CNC(c1ccccc1)c1cc(Br)ccc1N (stereo not given),1.2,0.92
COc1ccc2cc(-c3nc4ccccc4n3C)c(=O)oc2c1,0.57,-1.09
CC(=O)N1CCc2cc(C(=O)CN3CCCCC3)ccc21,2.06,0.08
COc1ccc(NC(=O)CCNS(=O)(=O)c2ccc(C)c(C)c2)cc1OC,0.15,-1.18
CCCNC(=S)N1CCC(NC(=O)Nc2ccc(C)cc2)CC1,0.88,0.17
NC(=O)CSc1nc(-c2ccccc2)c(-c2ccccc2)o1,0.94,0.23
S=C(Nc1ccc(Cl)cc1)N1CCCC1,0.18,-0.75
COC(=O)C1=C(C)N(C(C)C)C(=O)C1(NC(=O)C1CCCCC1)C(F)(F)F (stereo not given),1.15,-0.97
O=C(CCc1nnc2n(Cc3ccccc3)c(=O)c3ccccc3n12)NCCN1CCOCC1,0.71,-1.59
O=C(Nn1cc(C(=O)N2CCN(c3ccccc3F)CC2)c2ccccc2c1=O)c1cnccn1,0.04,-2.39
